# UUG fidelity – yeast start codon fidelity modulation | activity score, % at 18.7 µM | actives 0.13% (n = 350,000) | S. cerevisiae UUG-firefly luciferase reporter, luminescence/redox ratio;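 active = replicate mean at a twofold rise or more, about +100% in these data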;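 note: firefly luciferase made from a UUG start codon reports start codon fidelity; reporter light over untreated wells divided by growth signal over untreated wells; some hits fall short of that in this replicate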
# HIV Env fusion – blocks HIV Env-driven cell-cell fusion. AID 651610. inhibition, % at 12.3 µM. HeLa-JRFL Env/CEM21 cell fusion, luciferase. actives 1.1% (n = 360,000);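 active = mean replicate inhibition score of at least 50 and every replicate individually at or above 50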;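 note: 0% = plate neutral controls and 100% = maraviroc near 300 nM; one replicate is shown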
# Active calls of the source: *; [ ] = remark or other dose. Some of the compounds tested, so the mix of outcomes need not match the whole.
HIV Env fusion	UUG fidelity	SMILES
-22[16.7 µM]	-7	Cc1noc(C)c1NC(=O)Nc1ccc2c(c1)CC(=O)N([C@H](C)CO)C[C@H](C)[C@@H](CN(C)CC1CCCCC1)O2
5[16.7 µM]	25	C[C@@H]1CN([C@@H](C)CO)C(=O)c2cc(NC(=O)Nc3cccc4ccccc34)ccc2O[C@H]1CN(C)C
-8[16.7 µM]	0	COc1ccc(NC(=O)Nc2ccc3c(c2)CC(=O)N([C@H](C)CO)C[C@H](C)[C@H](CN(C)S(C)(=O)=O)O3)cc1
18[16.7 µM]	-1	C[C@@H]1CN([C@@H](C)CO)C(=O)c2cc(NC(=O)Nc3cccc4ccccc34)ccc2O[C@H]1CN(C)S(=O)(=O)c1ccc(F)cc1
16[16.7 µM]	-10	C[C@H]1CN([C@@H](C)CO)S(=O)(=O)c2ccc(C3=CCCCC3)cc2O[C@@H]1CN(C)C(=O)Cc1cccnc1
-3[16.7 µM]	8	COc1ccc(NC(=O)N(C)C[C@@H]2Oc3c(NC(=O)Nc4ccccc4)cccc3C(=O)N([C@@H](C)CO)C[C@H]2C)cc1
19[16.7 µM]	-2	Cc1ccc(S(=O)(=O)Nc2ccc3c(c2)C(=O)N([C@@H](C)CO)C[C@H](C)[C@H](CN(C)C(=O)Cc2ccccc2)OCCCC[C@H](C)O3)cc1
-6[16.7 µM]	-2	C[C@H](O)C#Cc1cnc2c(c1)C(=O)N([C@@H](C)CO)C[C@H](C)[C@H](CN(C)C(=O)c1ccncc1)O2
-3[16.7 µM]	11	C[C@@H]1CN([C@@H](C)CO)C(=O)c2cc(NS(=O)(=O)c3ccccc3)ccc2O[C@@H](C)CCCCO[C@@H]1CN(C)C
7[16.7 µM]	-12	C[C@H](CO)N1C[C@H](C)[C@H](CN(C)C(=O)Nc2ccc3c(c2)OCO3)Oc2ncc(-c3cccnc3)cc2C1=O
-4[16.7 µM]	0	COc1ccccc1-c1cn(CC[C@@H]2CC[C@H](NC(=O)C3CCOCC3)[C@@H](CO)O2)nn1
-85[16.7 µM]	8	O=C(CCN1CCCCC1)N[C@@H]1CC[C@H](CCNC(=O)c2cc(Cl)cc(Cl)c2)O[C@@H]1CO
-2[16.7 µM]	-6	Cc1ccc(NC(=O)Nc2ccc3c(c2)C(=O)N(C)[C@H]2CC[C@H](CC(=O)O)O[C@@H]2CO3)cc1
-112[16.7 µM]	10	C[C@H]1CCCCO[C@@H](CN(C)C(=O)NC2CCCCC2)[C@@H](C)CN([C@@H](C)CO)C(=O)c2cc(NS(=O)(=O)c3cccs3)ccc2O1
44[16.7 µM]	-19	C[C@@H]1CCCCO[C@@H](CN(C)S(=O)(=O)c2ccc(Cl)cc2)[C@H](C)CN([C@H](C)CO)C(=O)c2cc(NS(=O)(=O)c3ccc(Cl)cc3)ccc2O1
-4[16.7 µM]	5	C[C@H](CO)N1C[C@H](C)[C@H](CN(C)C(=O)Nc2ccc(C(F)(F)F)cc2)Oc2ncc(C#C[C@@H](C)O)cc2C1=O
-1[16.7 µM]	-28	C[C@H](CO)N1C[C@H](C)[C@H](CN(C)CC2CCCCC2)Oc2ccc(NC(=O)CCCN(C)C)cc2CC1=O
75*[16.7 µM]	5	C[C@@H]1CN([C@H](C)CO)C(=O)c2cccc(NS(=O)(=O)c3ccc(Cl)cc3)c2O[C@@H]1CN(C)Cc1ccc(Cl)c(Cl)c1
-11[16.7 µM]	-6	C[C@@H]1CN([C@@H](C)CO)C(=O)Cc2cc(NC(=O)NC3CCCCC3)ccc2O[C@@H]1CN(C)Cc1ccc(Cl)c(Cl)c1
-29[16.7 µM]	24	COc1ccc(NC(=O)N(C)C[C@@H]2OCCCC[C@@H](C)Oc3ccc(NS(=O)(=O)c4c(C)noc4C)cc3C(=O)N([C@@H](C)CO)C[C@H]2C)cc1
-60[16.7 µM]	7	Cc1noc(C)c1S(=O)(=O)N(C)C[C@H]1OCCCC[C@H](C)Oc2ccc(NC(=O)NC(C)C)cc2C(=O)N([C@@H](C)CO)C[C@@H]1C
-4[16.7 µM]	-6	C[C@H](CO)N1C[C@H](C)[C@H](CN(C)Cc2ccc(Oc3ccccc3)cc2)Oc2ccc(NC(=O)Nc3ccccc3)cc2CC1=O
-14[16.7 µM]	-14	COCc1cn(CC[C@H]2CC[C@@H](NC(=O)Cc3cccnc3)[C@H](CO)O2)nn1
7[16.7 µM]	13	CCCC(=O)Nc1ccc2c(c1)OC[C@@H](C)N(C(C)=O)C[C@H](C)[C@H](OC)CN(C)C2=O
-7[16.7 µM]	-14	C[C@@H]1CCCCO[C@H](CN(C)Cc2ccccc2)[C@@H](C)CN([C@H](C)CO)C(=O)c2cc(NS(=O)(=O)c3ccccc3)ccc2O1
-4[16.7 µM]	-9	CC(=O)N(C)C[C@@H]1Oc2cc(-c3cncnc3)ccc2S(=O)(=O)N([C@@H](C)CO)C[C@@H]1C
-9[16.7 µM]	4	C[C@@H]1CCCCO[C@@H](CN(C)C(=O)Nc2cccc3ccccc23)[C@H](C)CN([C@@H](C)CO)C(=O)c2cc(NS(=O)(=O)c3ccc(Cl)cc3)ccc2O1
-32[16.7 µM]	-11	C[C@@H]1CCCCO[C@@H](CN(C)C(=O)Nc2ccc(F)cc2)[C@H](C)CN([C@@H](C)CO)C(=O)c2cc(NC(=O)Nc3ccccc3)ccc2O1
-71[16.7 µM]	2	CC(C)NC(=O)N(C)C[C@H]1OCCCC[C@H](C)Oc2ccc(NC(=O)Nc3ccc(C(F)(F)F)cc3)cc2C(=O)N([C@H](C)CO)C[C@@H]1C
-4[16.7 µM]	0	CN1C(=O)c2cc(NC(=O)Cc3ccccc3)ccc2OC[C@H]2O[C@@H](CC(=O)O)CC[C@H]21

# New compounds follow.
HIV Env fusion	UUG fidelity	SMILES
3[16.7 µM]	19	C[C@@H]1CCCCO[C@H](CN(C)C(=O)CCC(F)(F)F)[C@H](C)CN([C@H](C)CO)C(=O)c2cc(NC(=O)Cc3ccccc3)ccc2O1
-18[16.7 µM]	4	C[C@H]1CN([C@@H](C)CO)C(=O)Cc2cc(NC(=O)CCC(F)(F)F)ccc2O[C@H]1CN(C)Cc1ccc2c(c1)OCO2
-2[16.7 µM]	2	CNC[C@@H]1Oc2c(NC(=O)Nc3ccc4c(c3)OCO4)cccc2C(=O)N([C@@H](C)CO)C[C@@H]1C
12[16.7 µM]	21	C[C@H](CO)N1C[C@H](C)[C@H](CN(C)Cc2ccc3c(c2)OCO3)Oc2ccc(NC(=O)Cc3ccccc3)cc2CC1=O
-12[16.7 µM]	0	CCC(=O)N[C@@H]1CC[C@@H](CCn2cc(-c3cccc(OC)c3)nn2)O[C@H]1CO
-16[16.7 µM]	-14	C[C@H](O)C#Cc1cnc2c(c1)C(=O)N([C@@H](C)CO)C[C@@H](C)[C@H](CN(C)C(=O)Cc1ccccn1)O2
-14[16.7 µM]	-14	CC(=O)N(C)C[C@@H]1Oc2cc(-c3cncnc3)ccc2S(=O)(=O)N([C@H](C)CO)C[C@@H]1C
-2[16.7 µM]	1	C[C@@H]1CCCCO[C@H](CN(C)Cc2ccc(C(=O)O)cc2)[C@@H](C)CN([C@H](C)CO)C(=O)c2cc(NS(=O)(=O)c3ccc(Cl)cc3)ccc2O1
23[16.7 µM]	-5	C[C@@H]1CN([C@@H](C)CO)S(=O)(=O)c2ccc(C#Cc3ccccc3F)cc2O[C@H]1CN(C)C(=O)Cc1ccccc1
-10[16.7 µM]	14	CC(=O)N(C)C[C@H]1Oc2cc(-c3cccc(F)c3)ccc2S(=O)(=O)N([C@@H](C)CO)C[C@@H]1C
1[16.7 µM]	-12	CO[C@@H]1CN(C)C(=O)c2cc(NC(=O)NC(C)C)ccc2OC[C@H](C)N(C(=O)NC(C)C)C[C@H]1C
6[16.7 µM]	9	COc1ccc(NC(=O)N(C)C[C@H]2Oc3ccc(NC(=O)CCC(F)(F)F)cc3C(=O)N([C@@H](C)CO)C[C@@H]2C)cc1
14[16.7 µM]	-2	C[C@@H]1CN([C@H](C)CO)S(=O)(=O)c2ccc(C#CC3CC3)cc2O[C@@H]1CN(C)Cc1ccccc1
3[16.7 µM]	12	C[C@@H]1CCCCO[C@H](CN(C)S(C)(=O)=O)[C@H](C)CN([C@@H](C)CO)C(=O)c2cc(NS(=O)(=O)c3ccccc3)ccc2O1
10[16.7 µM]	-1	C[C@@H]1CCCCO[C@H](CN(C)C)[C@@H](C)CN([C@@H](C)CO)C(=O)c2cc(NC(=O)CCC(F)(F)F)ccc2O1
-2[16.7 µM]	-3	C[C@@H]1CN([C@H](C)CO)C(=O)c2cc(-c3cccc(F)c3)cnc2O[C@H]1CN(C)CC1CCOCC1
-5[16.7 µM]	11	COc1ccc(S(=O)(=O)Nc2ccc3c(c2)C(=O)N([C@H](C)CO)C[C@H](C)[C@@H](CN(C)Cc2ccc(C(F)(F)F)cc2)OCCCC[C@@H](C)O3)cc1
6[16.7 µM]	7	COc1ccc([Si](C)(C)[C@@H]2[C@@H](CCn3cc([C@H](O)c4ccccc4)nn3)O[C@]3(C(=O)N(C)c4ccccc43)[C@H]2C)cc1
-27[16.7 µM]	9	CC(C)C#Cc1cnc2c(c1)C(=O)N([C@@H](C)CO)C[C@H](C)[C@@H](CN(C)C(=O)C1CCC1)O2
33[16.7 µM]	-1	C[C@@H]1CCCCO[C@H](CN(C)Cc2ccc(C(F)(F)F)cc2)[C@H](C)CN([C@H](C)CO)C(=O)c2cc(N(C)C)ccc2O1
13[16.7 µM]	21	C[C@H](CO)N1C[C@H](C)[C@@H](CN(C)CC2CCCCC2)OCCCC[C@H](C)Oc2ccc(N(C)C)cc2C1=O
-2[16.7 µM]	-13	O=C(C[C@H]1C=C[C@@H](NC(=O)Nc2cc(F)ccc2F)[C@H](CO)O1)NCc1ccccn1
-28[16.7 µM]	-6	Cc1noc(C)c1S(=O)(=O)Nc1ccc2c(c1)C(=O)N([C@H](C)CO)C[C@H](C)[C@H](CN(C)C(=O)Nc1ccccc1)OCCCC[C@H](C)O2
1[16.7 µM]	-11	COc1cccc(C#Cc2cnc3c(c2)C(=O)N([C@H](C)CO)C[C@H](C)[C@H](CN(C)C(=O)C2CCC2)O3)c1
36[16.7 µM]	-10	C[C@H](CO)N1C[C@H](C)[C@H](CN(C)C(=O)c2cnccn2)Oc2ncc(-c3cccc(F)c3)cc2C1=O
21[16.7 µM]	21	O=C(C[C@H]1C=C[C@H](NC(=O)Nc2cc(F)ccc2F)[C@@H](CO)O1)NCCCN1CCOCC1
8[16.7 µM]	5	CNC[C@@H]1Oc2cc(C#Cc3ccccc3F)ccc2S(=O)(=O)N([C@@H](C)CO)C[C@H]1C
-9[16.7 µM]	-7	C[C@@H](O)C#Cc1cnc2c(c1)C(=O)N([C@@H](C)CO)C[C@H](C)[C@@H](CN(C)C(=O)c1ccccc1)O2
12[16.7 µM]	-2	Cc1noc(C)c1S(=O)(=O)N(C)C[C@H]1OCCCC[C@H](C)Oc2ccc(NC(=O)NC(C)C)cc2C(=O)N([C@H](C)CO)C[C@H]1C
-5[16.7 µM]	24	C[C@H](CO)N1C[C@H](C)[C@H](CN(C)S(=O)(=O)c2cccs2)Oc2ccc(NC(=O)C3CC3)cc2C1=O

# With a hit mark in HIV Env fusion, among the entries above:
HIV Env fusion	UUG fidelity	SMILES
75*[16.7 µM]	5	C[C@@H]1CN([C@H](C)CO)C(=O)c2cccc(NS(=O)(=O)c3ccc(Cl)cc3)c2O[C@@H]1CN(C)Cc1ccc(Cl)c(Cl)c1

# Taken from above.
# C[C@@H]1CCCCO[C@H](CN(C)C)[C@@H](C)CN([C@@H](C)CO)C(=O)c2cc(NC(=O)CCC(F)(F)F)ccc2O1 | HIV Env fusion: 10[16.7 µM]
# C[C@@H]1CCCCO[C@H](CN(C)S(C)(=O)=O)[C@H](C)CN([C@@H](C)CO)C(=O)c2cc(NS(=O)(=O)c3ccccc3)ccc2O1 | UUG fidelity: 12
# C[C@H](O)C#Cc1cnc2c(c1)C(=O)N([C@@H](C)CO)C[C@H](C)[C@H](CN(C)C(=O)c1ccncc1)O2 | HIV Env fusion: -6[16.7 µM]
# CC(C)NC(=O)N(C)C[C@H]1OCCCC[C@H](C)Oc2ccc(NC(=O)Nc3ccc(C(F)(F)F)cc3)cc2C(=O)N([C@H](C)CO)C[C@@H]1C | UUG fidelity: 2
# Cc1noc(C)c1S(=O)(=O)Nc1ccc2c(c1)C(=O)N([C@H](C)CO)C[C@H](C)[C@H](CN(C)C(=O)Nc1ccccc1)OCCCC[C@H](C)O2 | HIV Env fusion: -28[16.7 µM]

# Remaining list, next part
HIV Env fusion	UUG fidelity	SMILES
19[16.7 µM]	-9	C[C@H](CO)N1C[C@H](C)[C@@H](CN(C)S(=O)(=O)c2cccs2)OCCCC[C@H](C)Oc2ccc(NC(=O)Cc3ccccc3)cc2C1=O
3[16.7 µM]	6	CNC(=O)C[C@@H]1CC[C@@H]2[C@H](COc3ccc(NC(=O)Nc4ccccc4F)cc3C(=O)N2C)O1
24[16.7 µM]	-5	C[C@H](CO)N1C[C@H](C)[C@H](CN(C)C)Oc2cc(-c3cccc(C#N)c3)ccc2S1(=O)=O
-2[16.7 µM]	-5	C[C@@H]1CN([C@H](C)CO)C(=O)CCCn2cc(nn2)CO[C@H]1CN(C)Cc1ccccc1C(F)(F)F
-14[16.7 µM]	9	Cc1ccc(S(=O)(=O)N(C)C[C@@H]2OCCCC[C@@H](C)Oc3ccc(NS(=O)(=O)c4cccs4)cc3C(=O)N([C@@H](C)CO)C[C@@H]2C)cc1
-20[16.7 µM]	11	C[C@H](CO)N1C[C@H](C)[C@@H](CN(C)C(=O)Nc2ccccc2)Oc2ncc(C3=CCCC3)cc2C1=O
21[16.7 µM]	7	C[C@@H]1CN([C@H](C)CO)C(=O)c2cc(NC(=O)c3ccccc3)ccc2O[C@@H](C)CCCCO[C@@H]1CN(C)Cc1ccc(C(=O)O)cc1
-80[16.7 µM]	-6	C[C@H](CO)N1C[C@H](C)[C@@H](CN(C)C(=O)C2CCCCC2)OCCCC[C@H](C)Oc2ccc(NC(=O)Nc3ccc4c(c3)OCO4)cc2C1=O

# Screening data as filed in PubChem BioAssay.
